CBX7 AlphaScr: CBX7 chromodomain binding inhibitors, primary screen, biochemical, AlphaScreen | Chromobox protein homolog 7 (Homo sapiens), O95931 | AlphaScreen His6-CBX7 / biotin-H3K27me3 peptide binding; hits give low values | normalised signal (fraction of DMSO) (concentration not given with the values) | 1.1% of 66,000 active | AID 1224903, 2016; in the data active means normalised signal below about 0.5;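 further: 100 nL library stock added to about 20 µL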
Target sequence (O95931 whole entry, looked up): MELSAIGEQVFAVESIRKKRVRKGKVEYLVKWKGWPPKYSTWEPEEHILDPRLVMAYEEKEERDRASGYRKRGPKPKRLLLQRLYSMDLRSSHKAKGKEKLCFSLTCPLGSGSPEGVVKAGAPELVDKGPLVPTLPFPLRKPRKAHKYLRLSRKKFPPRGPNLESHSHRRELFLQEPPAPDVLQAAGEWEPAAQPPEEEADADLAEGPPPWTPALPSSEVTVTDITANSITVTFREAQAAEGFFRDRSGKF
CBX7 AlphaScr z-score: further read-out of CBX7 AlphaScr, marked with its call; z-score; measured here: z-score of CBX7 signal; some inactives read as strong as hits; reference of the scale not given here;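 same signal on another scale; lower means less binding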
An asterisk follows results filed as active. A portion of the library; rates above refer to the full screens.

canonical_smiles	CBX7 AlphaScr	CBX7 AlphaScr z-score
CC1=Nc2cc(C(=O)N3CCc4ccccc4C3)ccc2Sc2ccc(C)cc21	0.88	-5.8
Oc1ccc(Cl)cc1-c1cc(-c2ccc3c(c2)OCO3)cc(-c2ccccc2)n1	0.81	-3.5
CCOc1ccc(Nc2cc(C(=O)NCc3ccc(OC)cc3)c3ccccc3n2)cc1	1	0.15
CCOc1ccc(NC(=O)c2c(NC(=O)c3ccccc3)sc3c2CCCC3)cc1	1.2	2
COc1ccccc1-c1cc2nc(C)c(CCC(=O)NC(C)c3cccs3)c(C)n2n1 (stereo not drawn)	1	1.1
CC(=O)Nc1ccc(-c2nc(-c3ccccc3)c3ccccc3n2)cc1	1	0.1
CCOc1ccc(-c2nc(CSCC(=O)NCCOC)c(C)o2)cc1	1.3	1.6
Cc1ccc(S(=O)(=O)c2cn(CC(=O)Nc3ccc(C)c(Cl)c3)c3ccccc3c2=O)cc1C	0.96	-1.4
Cc1ccc(OCC(=O)Nc2c(C(=O)c3ccc(Cl)cc3)oc3ccccc23)cc1C	1.1	0.38
CCOC(=O)c1ccc(NC(=O)CS(=O)(=O)Cc2nc(-c3ccccc3C)oc2C)cc1	0.87	-2.4
Cc1cc(C)cc(OCc2nc(-c3ccccn3)no2)c1	0.97	-0.37
COCCCNC(=O)c1cc(-c2ccncc2)nc2ccccc12	1.1	0.62
Cc1onc(-c2c(F)cccc2Cl)c1C(=O)Nc1nnc(C2CCCCC2)s1	1	1
CCOc1ccc(-c2cc(CCCC(=O)NCc3cccc(OC)c3)no2)cc1	1	0.87
COc1cccc(-c2nc(CSCC(=O)NCCN3CCOCC3)c(C)o2)c1	0.97	-0.31
CCc1ccc(C2=NN(CCC(=O)NC(C)(C)C)C(=O)CC2)cc1	1	0.28
O=C(CSc1nc2ccccc2o1)Nc1ccc(Cl)cc1	1	0.67
Fc1ccccc1-c1nnc2ccc(C(F)(F)F)cn12	0.88	-3.1
COc1ccc(Nc2cc(C(=O)NCCN(C)CCc3ccccc3)c3ccccc3n2)c(OC)c1	0.75	-3.3
CC(C)OC(=O)Nc1ccc2c(c1)N(C(=O)CCN1CCCCC1)c1ccccc1CC2	0.8	-4.4
CCCCc1ccc(-c2nc(Nc3ccc(OC)cc3OC)c3ccccc3n2)cc1	1.9	20
NS(=O)(=O)c1ccc(Nc2nc(-c3ccccc3)c3cc(Cl)ccc3n2)cc1	1	1
Cc1ccc(CNC(=O)CCCCCn2c(=O)c3sccc3n(Cc3ccc(C)cc3)c2=O)cc1	1	0.18
Cc1ccc(-c2nc3cnccn3c2Nc2ccc(C(C)C)cc2)cc1	0.91	-1.1
COc1ccc(-c2nnc(NC(=O)c3ccc(Cl)cc3Cl)s2)cc1	1.1	0.41
CC(Cc1c[nH]c2ccccc12)NC(N)=O (stereo not drawn)	1	0.35
COC(=O)c1c(C)[nH]c(C)c1-c1cccc2ccccc12	0.73	-5.4
Cc1cc2c(cc1C)NC(CC(=O)Nc1ccc(Cl)c(C(F)(F)F)c1)C(=O)N2 (stereo not drawn)	1	0.97
O=C(NC1CCCCCCC1)c1ccc2c(c1)N(Cc1ccccc1F)C(=O)CS2	1	0.34
CC1(C)CC(=O)c2sc(NC(=O)c3ccccc3Cl)nc2C1	0.98	-0.38
Cc1nc2cc(-c3ccccc3)nn2c(C)c1CCC(=O)NCc1ccccc1Cl	0.99	-0.26
CC(=O)N1CCc2cc(S(=O)(=O)NCCC(=O)Nc3ccc4c(c3)OCCO4)ccc21	0.99	-0.22
O=C(CSc1nnc(CNC(=O)c2ccccc2F)o1)Nc1cccc(C(F)(F)F)c1	1	1.2
Fc1ccccc1Cn1nnc(-c2ccc3c(c2)OCO3)n1	0.88	-1.7
Cc1ccc(-c2nn(C)c(=O)c3ccccc23)cc1S(=O)(=O)NCCN(C)C	1.2	2.2
O=C(CCc1ccccc1)Nc1c2c(nn1-c1ccc(F)cc1)CSC2	0.98	-0.63
CCCOc1ccc(C(=O)Nc2cccc(-c3nc4ccccc4[nH]3)c2C)cc1	1	-0.0086
COCCCNC(=O)C(C)C1Sc2ccccc2N(Cc2ccc(F)cc2Cl)C1=O (stereo not drawn)	1.1	1
CCc1cc2c(=O)c(-c3nc(C)cs3)coc2cc1OC(C)C(=O)NCCO (stereo not drawn)	1.1	2.4
COc1ccc(C2C(Oc3ccccc3C)C(=O)N2c2ccccc2Cl)cc1OC (stereo not drawn)	1.2	1.7
CCOCCCNC(=O)C1CCCN(Cc2nc(-c3ccc(CC)cc3)oc2C)C1 (stereo not drawn)	1	0.56
COC(=O)c1cc2oc(C)cc2n1CC(=O)Nc1ccc(OC)c(OC)c1	1	0.016
Cc1cccc2nc(-c3ccccn3)c(Nc3ccc(F)cc3)n12	0.059*	-25*
O=c1c(S(=O)(=O)c2ccccc2)c[nH]c2ccc(Cl)cc12	1.4	1.6
CC(C)c1ccc(NC(=O)C2(S(=O)(=O)c3ccc(Cl)cc3)CC2)cc1	1.1	2.2
O=C(CSc1nccn1-c1ccc(Cl)cc1)NC1CCCCC1	0.97	-0.23
Cc1ccc(-c2cc(C(=O)Nc3ccccc3Br)c3ccccc3n2)cc1	1.7	2.4
CS(=O)(=O)N1CCC(C(=O)NCCc2ccc(Cl)cc2)CC1	1	1.8
Cc1ccccc1NC(=O)C(=O)c1c(-c2ccccc2)[nH]c2ccccc12	0.84	-2.6
CCOCCCNC(=O)CN1C(=O)COc2ccccc21	1.1	3.2

Next part:
canonical_smiles	CBX7 AlphaScr	CBX7 AlphaScr z-score
CN(CCC#N)C(=O)CN1C(=O)COc2ccc(C(C)(C)C)cc21	0.95	-1.5
O=C(NCc1ccc2c(c1)OCO2)c1cc(=O)[nH]c2ccc(S(=O)(=O)N3CCCCC3)cc12	0.91	-1.2
Cc1oc(-c2cccc(Cl)c2)nc1CS(=O)(=O)CC(=O)NCC(C)c1ccccc1 (stereo not drawn)	0.99	-0.3
CCOc1ccc(N2C(=O)CC(N3CCN(c4ccccn4)CC3)C2=O)cc1 (stereo not drawn)	0.99	-0.29
Cc1cccc(C(=O)Nc2c(-c3cccs3)nc3ccccn23)c1	1	-0.043
COc1ccc(-c2ccc(=O)n(CC(=O)Nc3cc(OC)ccc3OC)n2)cc1	0.77	-3.2
Cc1ccc(Cl)cc1N1CCN(C(=O)C2(S(=O)(=O)c3ccc(Cl)cc3)CC2)CC1	1	0.07
O=C(NCCN1CCOCC1)c1cc(-c2ccc(F)cc2)on1	1	1.8
O=C(CCNS(=O)(=O)c1ccc2c(c1)CCC(=O)N2)Nc1nccs1	1	0.95
CCN(CC)CCn1c(NCc2ccc(OC)cc2)nc2ccccc21	0.98	-0.4

Arranged by molar mass (falling): 13 of the compounds above.
canonical_smiles	CBX7 AlphaScr	CBX7 AlphaScr z-score
O=C(NCc1ccc2c(c1)OCO2)c1cc(=O)[nH]c2ccc(S(=O)(=O)N3CCCCC3)cc12	0.91	-1.2
Cc1ccc(Cl)cc1N1CCN(C(=O)C2(S(=O)(=O)c3ccc(Cl)cc3)CC2)CC1	1	0.07
Cc1oc(-c2cccc(Cl)c2)nc1CS(=O)(=O)CC(=O)NCC(C)c1ccccc1 (stereo not drawn)	0.99	-0.3
COc1ccc(-c2ccc(=O)n(CC(=O)Nc3cc(OC)ccc3OC)n2)cc1	0.77	-3.2
O=C(CCNS(=O)(=O)c1ccc2c(c1)CCC(=O)N2)Nc1nccs1	1	0.95
CC(C)c1ccc(NC(=O)C2(S(=O)(=O)c3ccc(Cl)cc3)CC2)cc1	1.1	2.2
Cc1ccccc1NC(=O)C(=O)c1c(-c2ccccc2)[nH]c2ccccc12	0.84	-2.6
CCN(CC)CCn1c(NCc2ccc(OC)cc2)nc2ccccc21	0.98	-0.4
O=C(CSc1nccn1-c1ccc(Cl)cc1)NC1CCCCC1	0.97	-0.23
CS(=O)(=O)N1CCC(C(=O)NCCc2ccc(Cl)cc2)CC1	1	1.8
CN(CCC#N)C(=O)CN1C(=O)COc2ccc(C(C)(C)C)cc21	0.95	-1.5
O=C(NCCN1CCOCC1)c1cc(-c2ccc(F)cc2)on1	1	1.8
CCOCCCNC(=O)CN1C(=O)COc2ccccc21	1.1	3.2

Next results follow.
canonical_smiles	CBX7 AlphaScr	CBX7 AlphaScr z-score
CCc1ccccc1NC1c2ccccc2C(=O)N1c1ccccc1C (stereo not drawn)	0.96	-0.81
Cc1nccc2[nH]c(=O)c(C(=O)NC(C)c3ccccc3)cc12 (stereo not drawn)	0.91	-1.8
O=c1cc(Cc2nnc(SCc3ccccc3)n2-c2ccc(Cl)cc2)[nH]c(=O)[nH]1	1	0.31
Cc1ccc(Cn2cc(CCC(=O)NCCN3CCOCC3)c3ccccc32)cc1	0.92	-0.081
O=C(O)c1ccc(-c2nc(-c3ccccc3)c(-c3cccs3)[nH]2)cc1	0.88	-0.24
Cc1ccc2oc(-c3cccc(NC(=O)COc4ccc(C(C)C)cc4)c3)nc2c1	0.97	-0.64
Cc1c(C(=O)c2ccccc2)nnn1-c1nonc1N	1	1.3
CCOC(=O)c1nnn(-c2nonc2N)c1CN1CCN(C)CC1	1	0.34
CCC(=O)N1CCc2cc(S(=O)(=O)N(CC)CC)ccc21	1.2	2.1
Oc1c(C(Nc2ccccn2)c2ccccc2)ccc2cccnc12 (stereo not drawn)	0.01*	-7.1*
CC(C)Oc1ccc(C(=O)Nc2c(C(=O)Nc3ccc(F)cc3)oc3ccccc23)cc1	1.1	3.3
O=C(c1ccc(F)cc1)N1CCN(c2ccc3nnc(-c4ccccc4)n3n2)CC1	0.87	-1.8
O=C(NCc1ccc2c(c1)OCO2)C1CC(=O)N(C2CCCC2)C1 (stereo not drawn)	1	0.31
O=C1c2ccccc2C(Nc2cccnc2)N1Cc1ccc2c(c1)OCO2 (stereo not drawn)	1	0.57
COc1ccc(Cl)cc1C(=O)Nc1c2c(nn1-c1cccc(C)c1C)CSC2	1.1	0.96
COc1ccc(CCNC(=O)C2(S(=O)(=O)c3ccc(Cl)cc3)CC2)cc1OC	0.97	-1.5
Cc1ccc2nc(N3CCN(c4cccc(C)c4C)CC3)c(-n3nc(C)cc3C)nc2c1	1.5	17
Cc1ccc(C2CC(c3ccco3)=Nc3ccccc3S2)cc1 (stereo not drawn)	0.73	-4.2
CCN(c1ccccc1)S(=O)(=O)c1ccc2c(c1)CCN2C(=O)C1CCC1	0.97	-0.75
CC1(C)Cc2ccccc2-c2nnc(-c3cccs3)n21	0.93	-1.9
COc1cccc(C(=O)Nc2cc(-c3nc4ccccc4o3)ccc2OC)c1	1	0.46
CC1CC(C)CN(C(=O)c2ccc3c(c2)N(Cc2ccccc2F)C(=O)c2ccccc2S3=O)C1 (stereo not drawn)	1	0.015
Cn1c(=O)c(=O)n(C)c2cc(S(=O)(=O)NCc3ccc4c(c3)OCO4)ccc21	0.94	-0.85
Cc1nc2c(C(=O)N3CCN(C)CC3)cnn2c(C)c1Cc1ccc(Cl)cc1	1	-0.12
OC(c1ccc2c(c1)OCO2)c1nccc2ccccc12 (stereo not drawn)	1.1	0.44
COc1ccc(NC(=O)c2c(NCc3cccs3)sc3c2CCC(C)C3)c(OC)c1 (stereo not drawn)	0.53	-6.6
CCC1CCCCN1S(=O)(=O)c1ccc2[nH]c(=O)cc(C(=O)NC3CCCC3)c2c1 (stereo not drawn)	0.96	-0.78
Cc1ccc(-c2nc(-c3ccccc3)no2)c(Cl)c1	1.3	4.6
O=C(c1nn2c(C(F)(F)F)cc(-c3ccccc3)nc2c1Cl)N1CCCCCC1	1.1	3
CC1(C)CC(=O)c2cc(C(=O)Nc3ccc(S(N)(=O)=O)cc3)c(=O)n(-c3ccccc3)c2C1	1.2	1
Fc1cccc(Nc2c3c(nc4ccccc24)CCCC3)c1	0.94	-1.8
COc1ccc(Nc2c(-c3ccc(N(C)C)cc3)nc3cnccn23)cc1	0.93	-0.68
CCOC(=O)CNC(=O)c1cn(CC)c(=O)c2cc(OC)c(OC)cc12	1.3	2.7
Cc1cccc(-n2nc3c(c2NC(=O)COc2ccc(Cl)cc2)CSC3)c1	1.1	1.6
Cc1ccc2c(c1)N(CCC(=O)NC(C)C)C(=O)CO2	1.1	2.3
CCN(CCCNC(=O)c1ccc2c(c1)NC(=O)c1ccccc1N2)c1ccccc1	0.76	-1.9
O=C1CC(N2CCN(c3ccccc3)CC2)C(=O)N1c1ccccc1 (stereo not drawn)	0.99	-0.33
CCc1ccc(C(=O)Nc2nc3ccc(OC)cc3s2)cc1	1.1	0.056
CCC1CCCCN1CCCNC(=O)CS(=O)(=O)Cc1nc(-c2cccc(OC)c2)oc1C (stereo not drawn)	1	0.28
COC(=O)c1ccc2c(c1)N(Cc1nc(-c3ccccc3C)oc1C)C(=O)C1CCCN21 (stereo not drawn)	1	0.1
Cc1ccc(Nc2ncc(C(=O)NCCC3=CCCCC3)c3ccccc23)cc1Cl	1.1	3.9
Cc1cccc(-c2nc(CSCC(=O)N3CCN(Cc4ccc5c(c4)OCO5)CC3)c(C)o2)c1	0.82	-2.9
O=C(Nc1nc(-c2ccc(F)c(F)c2)cs1)c1cccc(F)c1F	1.3	2.6
O=c1cc(Nc2ccc3c(c2)OCO3)[nH]c(=O)n1-c1ccc(Cl)cc1	1	-0.04
CCOC(=O)c1sc(NC(=O)c2ccc(Br)cc2F)nc1C	1.1	1.4
O=C(CCC1CCCCC1)Nc1c2c(nn1-c1ccc(F)cc1)CSC2	0.95	-1.3
Cc1ccc(NC(=O)Cn2c(-c3nonc3N)nc3ccccc32)cc1F	1	-0.093

Bioassay records deposited in PubChem by several laboratories.
